High-throughput results as filed in PubChem BioAssay.
CDC25B CDK2 inh – human CDC25B-CDK2/CyclinA binding inhibition. 94,000 tested, 0.72% active. z-score (no concentration beside the values). P30305+P24941. HTRF CDC25B-CDK2/CyclinA binding, anti-His/anti-Flag; hits give high values. AID 1259370;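 further: score is relative to mean and SD of negative controls; strong numbers were not always called active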
TAR Tat displ – HIV-1 TAR-Tat binding disruption; z-score (no concentration beside the values); HIV-1 TAR RNA, Tat peptide displacement FRET; hits give high values; AID 1259389; 100,000 tested, 0.6% active;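 further: score is relative to mean and SD of negative controls; some compounds called inactive have numbers as strong as hits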
Starred values were filed as active, the others as inactive; / = no result given.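 How the source made its calls: active means z-score from 3 up in half or more of its runs; inactive means the rest.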

Preview:
SMILES | CDC25B CDK2 inh | TAR Tat displ
CC1(C)CC(=O)C2=C(C1)N=C1c3ccccc3C(=O)C1C2c1cc(Br)ccc1O (stereo not drawn) | -2.3 | 1.9
COC(=O)c1sc2ccccc2c1S(=O)(=O)N1CCCCC1 | / | 0.45
Cc1ccc(NC(=O)Nc2c(C3=CCCCC3)c(C)nn2C)cc1C | -2.1 | -0.65
O=C(c1cnc(N2CCCC2)nc1)N1CCC(CCN2CCCC2)CC1 | / | 0.92
O=C(NCc1ccc2c(c1)OCO2)NCc1noc2ccccc12 | / | 0.13

The whole of this part, repeating the preview:
SMILES | CDC25B CDK2 inh | TAR Tat displ
CC1(C)CC(=O)C2=C(C1)N=C1c3ccccc3C(=O)C1C2c1cc(Br)ccc1O (stereo not drawn) | -2.3 | 1.9
COC(=O)c1sc2ccccc2c1S(=O)(=O)N1CCCCC1 | / | 0.45
Cc1ccc(NC(=O)Nc2c(C3=CCCCC3)c(C)nn2C)cc1C | -2.1 | -0.65
O=C(c1cnc(N2CCCC2)nc1)N1CCC(CCN2CCCC2)CC1 | / | 0.92
O=C(NCc1ccc2c(c1)OCO2)NCc1noc2ccccc12 | / | 0.13
CN(C)C(=O)N1CCCC(C(=O)NC2CCCCC2)C1 (stereo not drawn) | / | 0.94
COCCNC(=O)C(CCS(C)(=O)=O)N1Cc2ccccc2C1=O (stereo not drawn) | / | 0.82
O=C(O)CC1(CC(=O)N2CCC(n3cccc3)CC2)CCCC1 | -1.7 | /
COC(=O)C1=C(N)OC2=C(C(=O)CC(C)(C)C2)C1c1cccnc1 (stereo not drawn) | 0.57 | /
COC(=O)C1=NN(c2ccc(C)cc2)C2C(=O)N(c3ccc(Br)cc3)C(=O)C12 (stereo not drawn) | -0.06 | 0.16
O=C(CCc1nc(CS(=O)(=O)c2ccccc2)no1)NC1CCCC1 | / | 0.57
O=C(Nc1ccc(F)cc1F)Nc1c[nH]c(=O)[nH]c1=O | / | 2.2
O=C(CC1(O)C(=O)Nc2ccccc21)c1cccc(Cl)c1 (stereo not drawn) | / | 2.5
Cc1ccc2c(C)nc(NC3=NCN(CC4CCCO4)CN3)nc2c1 (stereo not drawn) | 1.7 | /
O=C(CCc1nc(CN2CCN(S(=O)(=O)c3cccs3)CC2)no1)N1CCOCC1 | / | 1.1
CCc1c(C)nc2nncn2c1NCc1ccc(OC)cc1 | -3.1 | -0.38
O=S1(=O)N=C(c2cccs2)Nc2ccccc21 | / | 0.43
O=C(Nc1ccc(F)cc1)c1cc2c(s1)-c1ccccc1SC2 | -0.46 | 0.5
CCc1nnc(SCC(=O)Nc2ccc(F)c(Cl)c2)c2cc3sccc3n12 | / | 2.7
Cc1ccc(N2C(=O)N(Cc3ccc(Cl)cc3)C3CS(=O)(=O)CC32)cc1Cl (stereo not drawn) | -2.1 | 1.3
O=C(CSc1nnc2sc3ccccc3n12)Nc1nc2c(s1)CCCC2 | 1.2 | 1.3
Cc1ccccc1OCC(O)Cn1cnc2ccccc21 (stereo not drawn) | -0.87 | 1
CCCCSc1nc2n(n1)C(c1ccccc1OCC)C1=C(CCCC1=O)N2 (stereo not drawn) | -0.9 | -1.9
CC1(C)CC(=O)C2=C(C1)NC1=C(C(=O)CC(C)(C)C1)C2c1c(Cl)cccc1Cl | -2.1 | /
CCCC1N=C2c3ccccc3N=C(SC(C)C(=O)Nc3ccc4c(c3)OCCO4)N2C1=O (stereo not drawn) | / | 0.39
Cc1c(C(=O)OCC2CCCO2)[nH]c2c1C(=O)CC(c1ccco1)C2 (stereo not drawn) | 3 | /
COc1ccc(OC)c(NS(=O)(=O)c2cc(-c3cc(C)no3)ccc2OC)c1 | / | -0.78
O=C(Nc1cccc(F)c1)N1CCN(c2ncccn2)CC1 | -1.1 | 0.11
COc1cc2nc(NCCCOC(C)C)n3nc(-c4cccnc4)nc3c2cc1OC | -1.1 | 2.9
COc1ccc2c(c1)CC(NC(=O)Nc1cccc(F)c1)CO2 (stereo not drawn) | / | 1.7
Cc1nc(NCc2ccc3c(c2)OCO3)ncc1C(=O)NC1CCCC1 | / | 1
COCCCNC(=O)C1CCCN(S(=O)(=O)N2CC(C)CC(C)C2)C1 (stereo not drawn) | / | 0.55
CC1(C)CC(=O)C2=C(C1)Nc1[nH]c(=O)[nH]c(=O)c1C2c1cccnc1 (stereo not drawn) | 2.6 | 0.78
CC1=C(C(=O)N2CCN(c3cccc(Cl)c3)CC2)C2(CCN(S(C)(=O)=O)CC2)OC1=O | / | -0.72
Cc1nnnn1-c1ccc(Cl)cc1 | -1.6 | /
Cc1cccc(-c2nc3c(c(SCC(N)=O)n2)Cc2c(CO)cnc(C)c2O3)c1 | / | 2.3
COc1ccccc1C(=O)OCc1cc(=O)n2nc(-c3cccs3)sc2n1 | / | 0.57
CC(C)n1c(SCC(=O)c2cccc([N+](=O)[O-])c2)nc2cc(C(F)(F)F)ccc21 | -0.85 | /
Brc1ccccc1-c1nc(-c2ccccn2)no1 | -1 | /
CSc1cccc(NS(=O)(=O)c2ccc3c(c2)NC(=O)CCS3)c1 | / | 1.4
CCN(CC)S(=O)(=O)c1ccc2c(c1)N(CC(=O)N1CCN(c3ccccc3)CC1)C(=O)CO2 | 0.32 | /
Cc1cc2c(cc1S(=O)(=O)NC1CCC(C)CC1)OCC(=O)N2 (stereo not drawn) | / | 2
N/C(=N\O)c1ccc2nonc2c1 | 0.61 | /
Nc1nc(N2CCCC2)nc(Nc2ccc(F)cc2)c1[N+](=O)[O-] | / | 1.1
Cc1ccc(C)n1-c1nnc(N2CCC(C(=O)NC(C)C)CC2)s1 | -0.54 | 0.02
FC(F)(F)c1ccnc(NCc2ccc3c(c2)OCO3)n1 | -2.8 | /
CCN(CC)CCNC(=O)Cn1nc(C)n2cccc2c1=O | -1.6 | 2.2
CCOC(=O)c1c(C)oc2ncnc(N(CC)CCO)c12 | / | -1.2
O=C(Cn1ncc2c3ccccc3n(Cc3ccccc3)c2c1=O)NCc1ccco1 | 0.61 | -1.1
COc1ccc(S(=O)(=O)Nc2ccc3c(c2)N(S(=O)(=O)c2cccs2)CCC3)cc1F | / | -0.5
CCc1nnc(SCC(=O)N(CC)Cc2ccccc2)c2cc3sccc3n12 | / | 3.8
CC(C)(C)C(=O)OCC(N)=S | -1.9 | /
O=S(=O)(NCC1CC1)c1cc(Cl)cc(Cl)c1 | -2 | /
O=C(NCCc1ccccc1)Nc1c[nH]c(=O)[nH]c1=O | -0.76 | 1.1
CN(C)CCCN1C(=O)c2oc3ccc(F)cc3c(=O)c2C1c1cccnc1 (stereo not drawn) | / | 0.07
O=C(N1CCC(c2nc3c(nnn3Cc3ccccc3F)c(=O)[nH]2)CC1)C1(c2ccccc2)CC1 | 1.4 | 0.02
Cc1ccc(CN2CCc3nc(N4CCCC4)ncc3C2)cc1C | / | 2.1
Cc1ccccc1-c1noc(-c2nnn(-c3ccccc3Cl)c2N)n1 | / | 0.56
CCN1C(=O)C(Cc2nc3ccccc3c(=O)n2C)c2cc(Br)ccc21 (stereo not drawn) | -3.4 | -1.2
CC1=C(C#N)C(C)(C)C(C#N)=C(C)N1 | 0.25 | /

Looked up by structure from above, 4 records:
SMILES | CDC25B CDK2 inh | TAR Tat displ
FC(F)(F)c1ccnc(NCc2ccc3c(c2)OCO3)n1 | -2.8 | /
Nc1nc(N2CCCC2)nc(Nc2ccc(F)cc2)c1[N+](=O)[O-] | / | 1.1
N/C(=N\O)c1ccc2nonc2c1 | 0.61 | /
COc1ccc(S(=O)(=O)Nc2ccc3c(c2)N(S(=O)(=O)c2cccs2)CCC3)cc1F | / | -0.5

(list continues)
SMILES | CDC25B CDK2 inh | TAR Tat displ
CCOC(=O)C(C)Oc1ccc2c(=O)c(-c3ccc4c(c3)OCCCO4)c(C)oc2c1 (stereo not drawn) | 0.39 | /
Cn1c(=O)c2[nH]c(-c3ccccc3)nc2n(C)c1=O | -0.84 | /
COc1ccc(C[C@H](N)C(=O)N[C@@H]2[C@@H](CO)OC(n3cnc4c(N(C)C)ncnc43)[C@@H]2O)cc1 (stereo partly drawn) | / | 0.38
CCCC(=O)Nc1ccc2nsnc2c1 | -2 | 0.96
COC(=O)c1ccc(Oc2ncnc3sc(C)c(C)c23)cc1 | -1.7 | /
OCc1nc2ccccc2n1CCCOc1ccc(Cl)cc1 | -1.3 | 1.1
O=S(=O)(Nc1cccc(-c2ccc(N3CCOCC3)nn2)c1)c1cccc(F)c1 | / | 0.76
CCOC(=O)C(=O)c1c(C)cc2ccccn12 | -2 | 4
CCC(=O)Nc1c2c(nn1-c1cccc(Cl)c1)CS(=O)(=O)C2 | / | 0.5
COc1ccc(NC(=O)N2CCCC2C(=O)O)cc1 (stereo not drawn) | -1.7 | 1.6
Cc1ccccc1-n1nnc(-c2nc(-c3ccccc3Cl)no2)c1C | / | 1.9
CC1=C(C(=O)OCCc2ccccc2)C(c2ccccc2F)C2=C(CC(C)(C)CC2=O)N1 (stereo not drawn) | -5.2 | 2.9
CC(C)CCN1NC2(CCCCCC2)NC1=S | -0.06 | /
O=C(NCC1CCCO1)c1nnc(-c2ccc3c(c2)OCO3)o1 (stereo not drawn) | 0.74 | 0.68
O=C(NCCC1=CCCCC1)c1cc2c(s1)CS(=O)(=O)C2 | -1.4 | 0.24
CCOC(=O)C1CCN(C(=O)Cn2nc(CC)n3c(cc4occc43)c2=O)CC1 | -0.2 | 2.8
Brc1ccccc1-c1nnc2sc(-c3ccccn3)nn12 | -0.78 | 2.1
CNc1ncnc2c1cnn2-c1ccc(C)c(C)c1 | / | -0.4
COc1ccc2c(c1)nc(SCc1ccccc1)n2C | -0.88 | -0.73
CCn1c2ccccc2c2cc(C3OC(c4ccccc4OC(C)=O)=NN3C(C)=O)ccc21 (stereo not drawn) | / | 1.2
Cc1cc(S(=O)(=O)Nc2cc3c(cc2C)n(C)c(=O)n3C)ccc1F | / | -0.47
CCN(CC)c1c(-c2ccccc2)c2cc(Br)ccc2[nH]c1=O | / | 0.63
COc1cccc(-c2noc(COc3ccc(C(C)C)cc3)n2)c1 | 1 | 0.45
C=CCc1cc(OC)ccc1OCCOCCN1CCC(C)CC1 | -0.93 | 0.51
CCCCSc1nc2c(c(=O)[nH]1)C(c1cccnc1)C(C(=O)OC(C)C)=C(C)N2 (stereo not drawn) | -0.9 | -0.93
COc1ccc(CNCc2ccc3c(c2)OCO3)cc1 | -0.24 | -1.3
Cc1nn(CCCC(=O)N2CCc3ccccc32)c(=O)c2cc3occc3n12 | -1.3 | 3
CCCc1cnc(NCCNCC(O)COc2ccccc2)nc1 (stereo not drawn) | -1.4 | /
CC1CCC(NC(=O)C(C)n2ncn3cccc3c2=O)CC1 (stereo not drawn) | -1.3 | 2.3
Fc1ccc(CNc2nc3ccc(Cl)cc3n3nnnc23)cc1 | -1.3 | 1.4
CCOC(=O)c1nc(NCc2ccccn2)c2c(C)noc2n1 | / | 1.1
O=C1Cc2cc(S(=O)(=O)N3CCc4ccccc43)cc3c2N1CCC3 | / | 1.5
O=C(c1ccco1)N1CCC(c2ccncc2)CC1 | / | 1.3
CC(C)c1ccc(-n2nnc(-c3nc(-c4ccc(Cl)cc4)no3)c2N)cc1 | / | 0.86
O=C(CN1c2ccccc2S(=O)(=O)c2ccccc21)Nc1ccc2c(c1)OCCO2 | / | 1.2
Nc1ncnc2c1ncn2Cc1ccccc1 | -0.36 | 1.9
CCc1nc2nc(C)cc(NCc3ccc(C)cc3)n2n1 | -1.6 | -0.21
Cc1ccc(-c2cc(C(=O)N(Cc3ccc(C(C)C)cc3)C3CCS(=O)(=O)C3)no2)cc1 (stereo not drawn) | -2.2 | 1.9
Cc1[nH]c2ccccc2c1C(Nc1ccccc1Br)c1ccccn1 (stereo not drawn) | 2.4 | /
CCOC(=O)c1c(C)oc2ncnc(N(C)c3ccc(F)cc3)c12 | / | 0.01

An excerpt from above in order of length of the SMILES, high to low:
SMILES | CDC25B CDK2 inh | TAR Tat displ
Cc1ccc(-c2cc(C(=O)N(Cc3ccc(C(C)C)cc3)C3CCS(=O)(=O)C3)no2)cc1 (stereo not drawn) | -2.2 | 1.9
CC(C)c1ccc(-n2nnc(-c3nc(-c4ccc(Cl)cc4)no3)c2N)cc1 | / | 0.86
Cc1nn(CCCC(=O)N2CCc3ccccc32)c(=O)c2cc3occc3n12 | -1.3 | 3
O=C1Cc2cc(S(=O)(=O)N3CCc4ccccc43)cc3c2N1CCC3 | / | 1.5
COc1cccc(-c2noc(COc3ccc(C(C)C)cc3)n2)c1 | 1 | 0.45
CC1CCC(NC(=O)C(C)n2ncn3cccc3c2=O)CC1 (stereo not drawn) | -1.3 | 2.3
C=CCc1cc(OC)ccc1OCCOCCN1CCC(C)CC1 | -0.93 | 0.51

Carrying on:
SMILES | CDC25B CDK2 inh | TAR Tat displ
NC(=O)c1oc2ccccc2c1NC(=O)c1cccc(Br)c1 | -5.6 | -0.05
CCOC(=O)c1c(NC(C)=O)c2c3c(sc2n1CC(=O)NCc1ccco1)CCCC3 | / | 14*
CCCCC1CCC(C(=O)N(Cc2ccc(C)o2)C2CCS(=O)(=O)C2)CC1 (stereo not drawn) | -1.4 | -0.05
Cc1nc(C(=O)NNC(=O)c2cccc(Cl)c2)c(C(F)(F)F)o1 | -0.49 | /
Cc1cc(-c2ccc(S(=O)(=O)NCC3CCCO3)s2)on1 (stereo not drawn) | / | 0.44
O=c1cc(CSc2ccccc2)nc2sc(-c3ccco3)nn12 | -0.53 | 1.9
Cc1cc(NC(=O)c2cc3ccc4cccnc4c3[nH]2)no1 | / | 0.77
CC1CCn2c(nc3cc(C(=O)N4CCN(c5ncccn5)CC4)ccc32)C1 (stereo not drawn) | / | 0.89
C=CCn1c(-c2ccc(OC)c(OC)c2)nc2ccccc21 | -0.28 | -0.87
NC(=O)c1cnn(Cc2ccc(Cl)cc2)c1N | -1.9 | 1.4
Cc1ccc(N2C(=O)C3C4C=CC(CC4)C3C2=O)cc1 (stereo not drawn) | -1.1 | -0.91
COc1ccccc1C(=O)OC1=CN(Cc2ccccc2)S(=O)(=O)c2ccccc21 | -1.3 | -1
CC(=O)NCCSCCNC(C)=O | -0.76 | -0.39
COc1ccc(NS(=O)(=O)c2ccc(-n3cccn3)cc2)cc1OC | / | 0.25
